Mtb hypoxia inh: Mtb hypoxia fluorescent reporter inhibition; M. tuberculosis hypoxia-regulated fluorescent reporter, fluorescence; fluorescence inhibition, % (no concentration beside the values); hit rate 0.1% among 300,000; AID 1159583;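 active = 35 to 45% if threefold the growth effect, above 45% if 1.5-fold the growth effect; inactive = the rest, general growth blockers included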;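 also: wells of about 50 µL received 100 nL stock; 0% = vehicle wells and 100% = reference inhibitor wells; whole bacteria with a GFP reporter of the hypoxia response; strong numbers were not always called active; many hits fall short of the cut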
ugtP null kill: kills S. aureus RN4220 lacking UgtP; hit rate 0.54% among 330,000; growth inhibition, % (concentration not given with the values); S. aureus RN4220 ugtP deletion, OD600 growth, 16 h; some inactives read as strong as hits;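 active = z-score under -3 and OD600 up to 0.15 on both plates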;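 also: plate controls were untreated wells for no effect and antibiotic for full effect; wells of about 80 µL received 100 nL stock; the first replicate is given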
RN4220 kill: S. aureus RN4220 growth inhibition; AID 1259311; OD600, 16 h; hit rate 0.33% among 330,000; inhibition, % (test concentration not listed);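 active = z-score of -3 or lower and OD600 up to 0.18 on both plates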;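 also: plate controls were untreated cells for no effect and reference antibiotic for full effect; stock transfer was 100 nL into about 80 µL; one replicate is shown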
BJeLR lethal: BJeLR cell viability loss; AID 1554; inhibition, % (test concentration not listed); BJeLR (HRASV12) viability, CellTiter-Glo ATP luminescence, 48 h; reference of the scale not given here; hit rate 0.17% among 300,000;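 active = replicate mean above 50%; inconclusive = above 50% but judged a plate artefact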;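 also: 50 nL library stock added to about 25 µL; numbers are from one replicate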
Autofluor counter: compound fluorescence in toxin protease inhibitor counterscreen. compound autofluorescence counterscreen, microsphere flow cytometry; stronger effect = higher value. fluorescence intensity (test concentration not listed). hit rate 3.1% among 360,000;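 active = at least 3 SD above the mean of all compounds, about 16000 in these data; inconclusive = too few beads counted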;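 also: 100 nL of 1 mM stock went into each well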
PrP UTR inh: suppresses PrP 5' UTR mRNA reporter expression; inhibition, % (concentration not given with the values); hit rate 0.35% among 340,000; cell-based PrP 5' UTR mRNA reporter, plate reader; AID 488862;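 active = every replicate at 50% or more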;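 also: 0 = median of the neutral control wells; tested in H4 reporter cells; numbers are from one replicate; inactives centre near -14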
Mtb hypoxia inh growth: recorded beside Mtb hypoxia inh, whose call it bears; growth inhibition, %; measured here: M. tuberculosis growth (absorbance);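 0% = vehicle and 100% = reference antibiotic; read after six days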
Active calls of the source: *.

Preview (eight entries):
Screening S=c1nc[nH]c2c1ncn2C1CCCC1 returned BJeLR lethal -1, Autofluor counter 3539 and PrP UTR inh -24.
`CCC(CC)C(=O)OCC(=O)NC12CC3CC(CC(C3)C1)C2` gave Mtb hypoxia inh 9, ugtP null kill -8, RN4220 kill 6.2, BJeLR lethal -3, Autofluor counter 10481, PrP UTR inh -14 and Mtb hypoxia inh growth 7.
`CCCCNC(=O)CC1N=C2c3ccccc3N=C(SCC(=O)Nc3cccc(OC)c3)N2C1=O` (centres undefined) gave Mtb hypoxia inh 3, ugtP null kill 2, RN4220 kill 4.6, BJeLR lethal -6, Autofluor counter 8905, PrP UTR inh 18 and Mtb hypoxia inh growth 1.
`CCC(Sc1nc2n[nH]c(C)c2c(=N)n1-c1cccc(Cl)c1C)C(=O)N(CC)CC` (centres undefined) gave Mtb hypoxia inh 5, ugtP null kill -22, RN4220 kill 6.5, BJeLR lethal 3, Autofluor counter 11532, PrP UTR inh 0 and Mtb hypoxia inh growth 12.
CC1=CC(C)(C)N2C(=O)C3(C(C#N)=C(N)OC4=C3C(=O)CCC4)c3c(C)c(C)cc1c32 (centres undefined) was read as Mtb hypoxia inh 2, ugtP null kill 5, RN4220 kill 4.0, BJeLR lethal -2, Autofluor counter 17514*, PrP UTR inh -19 and Mtb hypoxia inh growth -5.
Screening COc1ccc(C(=O)N/N=C(\C)c2cccc(NC(=O)c3ccc(F)cc3)c2)c(OC)c1 returned BJeLR lethal 5, Autofluor counter 3987 and PrP UTR inh -2.
For COc1ccc(S(=O)(=O)N2CCOCC2)cc1NC(=O)COC(=O)c1[nH]c(C)c(C(C)=O)c1C the results were Mtb hypoxia inh 6, ugtP null kill 4, RN4220 kill 3.2, Autofluor counter 3023, PrP UTR inh -5 and Mtb hypoxia inh growth 8.
CC(C)CCn1c(COc2ccccc2)n[nH]c1=S was read as Mtb hypoxia inh 14, ugtP null kill 2, RN4220 kill 5.7, BJeLR lethal 2, Autofluor counter 4222, PrP UTR inh -7 and Mtb hypoxia inh growth 11.

All compounds of this part, repeating the preview:
Screening S=c1nc[nH]c2c1ncn2C1CCCC1 returned BJeLR lethal -1, Autofluor counter 3539 and PrP UTR inh -24.
`CCC(CC)C(=O)OCC(=O)NC12CC3CC(CC(C3)C1)C2` gave Mtb hypoxia inh 9, ugtP null kill -8, RN4220 kill 6.2, BJeLR lethal -3, Autofluor counter 10481, PrP UTR inh -14 and Mtb hypoxia inh growth 7.
`CCCCNC(=O)CC1N=C2c3ccccc3N=C(SCC(=O)Nc3cccc(OC)c3)N2C1=O` (centres undefined) gave Mtb hypoxia inh 3, ugtP null kill 2, RN4220 kill 4.6, BJeLR lethal -6, Autofluor counter 8905, PrP UTR inh 18 and Mtb hypoxia inh growth 1.
`CCC(Sc1nc2n[nH]c(C)c2c(=N)n1-c1cccc(Cl)c1C)C(=O)N(CC)CC` (centres undefined) gave Mtb hypoxia inh 5, ugtP null kill -22, RN4220 kill 6.5, BJeLR lethal 3, Autofluor counter 11532, PrP UTR inh 0 and Mtb hypoxia inh growth 12.
CC1=CC(C)(C)N2C(=O)C3(C(C#N)=C(N)OC4=C3C(=O)CCC4)c3c(C)c(C)cc1c32 (centres undefined) was read as Mtb hypoxia inh 2, ugtP null kill 5, RN4220 kill 4.0, BJeLR lethal -2, Autofluor counter 17514*, PrP UTR inh -19 and Mtb hypoxia inh growth -5.
Screening COc1ccc(C(=O)N/N=C(\C)c2cccc(NC(=O)c3ccc(F)cc3)c2)c(OC)c1 returned BJeLR lethal 5, Autofluor counter 3987 and PrP UTR inh -2.
For COc1ccc(S(=O)(=O)N2CCOCC2)cc1NC(=O)COC(=O)c1[nH]c(C)c(C(C)=O)c1C the results were Mtb hypoxia inh 6, ugtP null kill 4, RN4220 kill 3.2, Autofluor counter 3023, PrP UTR inh -5 and Mtb hypoxia inh growth 8.
CC(C)CCn1c(COc2ccccc2)n[nH]c1=S was read as Mtb hypoxia inh 14, ugtP null kill 2, RN4220 kill 5.7, BJeLR lethal 2, Autofluor counter 4222, PrP UTR inh -7 and Mtb hypoxia inh growth 11.
Screening COc1cc(OC)cc(-c2n[nH]c(=S)n2-c2cc(OC)ccc2OC)c1 returned Mtb hypoxia inh -8, ugtP null kill 0, RN4220 kill -2.6, BJeLR lethal -2, Autofluor counter 5835, PrP UTR inh -10 and Mtb hypoxia inh growth 0.
`O=C1CCN(CCc2ccccc2)CCN1CCOc1ccccc1` gave Mtb hypoxia inh 4, ugtP null kill 9, RN4220 kill 8.0, BJeLR lethal 15, Autofluor counter 4229, PrP UTR inh -13 and Mtb hypoxia inh growth -2.
For O=C(O)Cc1c[nH]c2ccc(O)cc12 the results were Mtb hypoxia inh 8, ugtP null kill 2, RN4220 kill 5.7, BJeLR lethal 5, Autofluor counter 6501, PrP UTR inh -8 and Mtb hypoxia inh growth 3.
`CC(C(=O)Nc1ccc(C(=O)O)c(O)c1)N1C(=O)/C(=C\c2ccco2)SC1=S` (centres undefined) gave Mtb hypoxia inh -1, ugtP null kill 5, RN4220 kill 1.8, BJeLR lethal -3, Autofluor counter 5430, PrP UTR inh -20 and Mtb hypoxia inh growth 8.
`Cc1onc(-c2ccccc2)c1C(=O)NNC(=O)c1ccccc1O` gave Mtb hypoxia inh -5, ugtP null kill -1, RN4220 kill 14, BJeLR lethal 3, Autofluor counter inconclusive, PrP UTR inh 0 and Mtb hypoxia inh growth 5.
`CCN(CC)S(=O)(=O)c1ccc(Cl)c(C(=O)NNC(=O)c2csc(N3CCOCC3)n2)c1` gave Mtb hypoxia inh 4, ugtP null kill 7, RN4220 kill 3.5, Autofluor counter 2764, PrP UTR inh -16 and Mtb hypoxia inh growth 1.
COc1ccc(/C=N/NC(=O)c2cccnc2)cc1COc1ccc([N+](=O)[O-])cc1 was read as BJeLR lethal 13, Autofluor counter 4210 and PrP UTR inh -24.
`COc1ccc(C(C)=O)cc1CSc1nnc(Nc2ccccc2)s1` gave Mtb hypoxia inh 12, ugtP null kill -5, RN4220 kill -1.2, BJeLR lethal 8, Autofluor counter 10153, PrP UTR inh 8 and Mtb hypoxia inh growth 4.
`O=C(Cc1cccc(C(F)(F)F)c1)NCc1ccc(Cl)cc1Cl` gave Mtb hypoxia inh 11, ugtP null kill -9, RN4220 kill -4.2, BJeLR lethal -13, Autofluor counter 2297, PrP UTR inh -23 and Mtb hypoxia inh growth 6.
For CN(C)c1ccc(P(=S)(N(C)C)N(C)C)cc1 the results were Mtb hypoxia inh 7, ugtP null kill 7, RN4220 kill 9.0, BJeLR lethal -10, Autofluor counter 10997 and Mtb hypoxia inh growth 6.
`CC(C)(CS(=O)(=O)[O-])NC(=O)CC[N+](C)(C)CCO` gave ugtP null kill -18, RN4220 kill -0.9, BJeLR lethal -2, Autofluor counter 2045 and PrP UTR inh -19.
Screening N#CCCN(CCC#N)C(=O)c1ccc2c(c1)OCO2 returned Mtb hypoxia inh -9, ugtP null kill -4, RN4220 kill 1.6, BJeLR lethal -11, Autofluor counter 20717*, PrP UTR inh -14 and Mtb hypoxia inh growth -2.
CC(=O)NC(c1ccccc1)c1cc(Cl)c2cccnc2c1O (centres undefined) was read as Mtb hypoxia inh 7, ugtP null kill -14, RN4220 kill 17, BJeLR lethal 27, Autofluor counter 3923, PrP UTR inh 19 and Mtb hypoxia inh growth 3.
Cn1c(CNC(=O)c2ccccc2F)nnc1SCC(=O)N1CCN(c2ccccc2)CC1 was read as Mtb hypoxia inh 10, ugtP null kill 1, RN4220 kill 4.7, BJeLR lethal -2, Autofluor counter inconclusive, PrP UTR inh -5 and Mtb hypoxia inh growth 1.
For COc1cccc(-c2nnc(N(C)C(=O)c3ccno3)s2)c1 the results were Mtb hypoxia inh 10, ugtP null kill -3, RN4220 kill 1.5, BJeLR lethal -5 and Mtb hypoxia inh growth 4.
Screening O=c1[nH]c(=S)[nH]cc1S(=O)(=O)c1cccc(Cl)c1 returned Mtb hypoxia inh 4, ugtP null kill 5, RN4220 kill 0.5, BJeLR lethal -1, Autofluor counter 4096, PrP UTR inh -24 and Mtb hypoxia inh growth -19.
Screening COc1ccc(C(=O)Nc2ccccc2C(=O)NC(Cc2ccc(O)cc2)C(=O)NNC(=O)c2ccncc2)cc1 (centres undefined) returned Mtb hypoxia inh -5, ugtP null kill 9, RN4220 kill 1.4, BJeLR lethal 2, Autofluor counter 3656, PrP UTR inh -10 and Mtb hypoxia inh growth -1.
CC(/C=C/c1ccccc1)=N\NC(=O)C1CC1(C)c1ccccc1 (centres undefined) was read as BJeLR lethal 4, Autofluor counter 8440 and PrP UTR inh -21.
`CN(C)C(=O)CCc1ccc2c3c([nH]c2c1)[C@]1(C)[C@@H](C(=O)N2CCOCC2)C[C@H](CC(=O)NCC24CC5CC(CC(C5)C2)C4)C(=O)N1CC3` gave Mtb hypoxia inh 2, ugtP null kill -2, RN4220 kill 1.0, Autofluor counter 3696, PrP UTR inh 2 and Mtb hypoxia inh growth 13.
Screening CCCCCn1c(=O)c(C(=O)Nc2nc3ccccc3[nH]2)c(O)c2ccccc21 returned Mtb hypoxia inh 1, ugtP null kill 101*, RN4220 kill 83, BJeLR lethal -17, Autofluor counter 3161, PrP UTR inh -9 and Mtb hypoxia inh growth 6.
For CC1CN(Cc2c(O)ccc3c(=O)c(-c4ccccc4Cl)coc23)CC(C)O1 (centres undefined) the results were Mtb hypoxia inh 4, ugtP null kill 5, RN4220 kill 2.1, BJeLR lethal -7, Autofluor counter 2854, PrP UTR inh -19 and Mtb hypoxia inh growth -2.
Screening C=CCn1c(-c2csc(-c3ccc(Cl)cc3)n2)n[nH]c1=S returned Mtb hypoxia inh 13, ugtP null kill -1, RN4220 kill 4.8, BJeLR lethal 0, Autofluor counter 2837, PrP UTR inh -8 and Mtb hypoxia inh growth 13.
Screening O=C(Nc1c2c(nn1-c1ccccc1)CS(=O)(=O)C2)c1cc2ccccc2o1 returned Mtb hypoxia inh 14, ugtP null kill 9, RN4220 kill 5.4, BJeLR lethal 1, Autofluor counter 4374, PrP UTR inh 1 and Mtb hypoxia inh growth 10.
Screening Cc1cc(C)cc(NC(=O)c2ccc(CSc3nnc(C)s3)cc2)c1 returned Mtb hypoxia inh 4, ugtP null kill 16, RN4220 kill 3.3, BJeLR lethal 1, Autofluor counter 3364, PrP UTR inh -30 and Mtb hypoxia inh growth 8.
For O=C(NCc1ccco1)C1CCCN(S(=O)(=O)Cc2ccccc2)C1 (centres undefined) the results were Mtb hypoxia inh 4, ugtP null kill 6, RN4220 kill 2.0, BJeLR lethal 1, Autofluor counter 10104, PrP UTR inh -14 and Mtb hypoxia inh growth 4.
`S=C(CN1CCCC1=S)NCCc1ccccc1` gave Mtb hypoxia inh 11, ugtP null kill -1, RN4220 kill 5.8, BJeLR lethal -5, Autofluor counter 5698, PrP UTR inh 1 and Mtb hypoxia inh growth 8.
For NS(=O)(=O)c1cnccc1Nc1ccc(Cl)cc1 the results were Mtb hypoxia inh 9, ugtP null kill 7, RN4220 kill 3.2, BJeLR lethal 7, Autofluor counter 2210, PrP UTR inh -31 and Mtb hypoxia inh growth -6.
For O=C(Nc1cccc2ccccc12)c1cnsn1 the results were Mtb hypoxia inh 5, ugtP null kill 7, RN4220 kill 4.1, BJeLR lethal 8, Autofluor counter 2116, PrP UTR inh -33 and Mtb hypoxia inh growth 9.
Screening NC(=O)N=Nc1c(O)[nH]c2ccc([N+](=O)[O-])cc12 returned Mtb hypoxia inh -9, ugtP null kill -9, RN4220 kill 3.7, BJeLR lethal -4, Autofluor counter 4430, PrP UTR inh -6 and Mtb hypoxia inh growth 0.
Screening CCC(C)C(=O)Nc1nnc(CCc2ccccc2)s1 (centres undefined) returned Mtb hypoxia inh 8, ugtP null kill 3, RN4220 kill 6.6, BJeLR lethal -4, Autofluor counter 3670, PrP UTR inh -26 and Mtb hypoxia inh growth 4.
Screening CC(=NNC(=O)c1cccs1)c1cccc(NC(=O)C2CC2)c1 returned Mtb hypoxia inh 4, ugtP null kill 3, RN4220 kill -2.4 and Mtb hypoxia inh growth 8.
Cc1ccc(NC(Cc2cc(C)no2)c2ccccc2)cc1 (centres undefined) was read as Mtb hypoxia inh 13, ugtP null kill 19, RN4220 kill 1.8, BJeLR lethal 11, Autofluor counter 2509, PrP UTR inh -21 and Mtb hypoxia inh growth -1.

Assay outcomes from PubChem.
